High-throughput results from PubChem BioAssay.
Menin-MLL FL inh = displaces fluorescein MLL peptide from human menin. 290,000 tested, under 10 active. Fluorescence polarization, fluorescein-MLL peptide displacement from menin. FP activity change, % at 61.4 µM; inconclusive = falling polarisation curve, or a change in total fluorescence; inactive = total fluorescence flat and polarisation flat or rising; no compound was filed as active; the % refers to the polarisation; negative = inhibition;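 note: % of control where 0% means no effect; inhibitors lower the polarisation; unlabelled MLL peptide was the positive control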
Sfp inh = inhibitors of Bacillus subtilis Sfp phosphopantetheinyl transferase; AID 1490; actives 3.5% (n = 310,000); Biochemical Sfp PPTase activity, qHTS; Potency, µM, for inactives: max response, negative = inhibition, hits mostly inhibitors; Q9F4F7; active = well fitted inhibition curve with a large enough effect; inconclusive = small, poorly fitted or top-dose-only effect, or another doubt; inactive = no such curve, though single readings can be large or run the other way;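 note: the enzyme is Sfp with the accession as filed and its product quenches rhodamine fluorescence; potency is the fitted concentration of half-maximal effect; 0% = enzyme reaction without inhibitor and -100% = no enzyme wells; top concentration of the series not given in the record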
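After 15 min at room temperature with compound, 15 nM Sfp received 5 uM rhodamine-CoA plus 12.5 uM BHQ-2-ybbR (50 mM Hepes pH 7.6, 10 mM MgCl2). Rate came from the fluorescence difference over 30 min, ex 525/em 598 nm.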
* = called active by the depositor; ? = inconclusive; & = joins results of further samples; [ ] = dose if it differs, or a comment.

SMILES	Menin-MLL FL inh	Sfp inh
CCC[C@@H]1NC(=O)[C@@H](NC(C)=O)CSSC[C@@H](C(N)=O)NC(=O)CNC(=O)[C@H](Cc2c[nH]c3ccccc23)NC(=O)[C@H](CCCN=C(N)N)NC(=O)[C@H](Cc2ccc3ccccc3c2)NC(=O)[C@H](Cc2cnc[nH]2)NC(=O)[C@H](CCCN=C(N)N)NC1=O	-3.4	19%
Cn1c(=O)c(-c2ccc(Cl)cc2)nc2cnc(Oc3cccc(Cl)c3)nc21	-0.4	12%
COCCNc1nc(C)nc2c1nc(-c1ccccc1)n2CCN1CCCC1	0.0	0%
Cc1noc(C)c1-c1nccc(-n2ccnc2)n1	-1.6	0%
CCCCCCCCCCCCCCCC(=O)OC[C@@H](COP(=O)([O-])OCC[N+](C)(C)C)OC(=O)CCCCCCCCCCCCCCC	-2.5	4%
O=c1c(-c2cc(F)cc(F)c2)nc2cnc(N3CCOCC3)nc2n1C1CC1	-0.6	-8%
Cn1cnnc1Sc1c([N+](=O)[O-])ncn1C	0.2	11%
c1ccc(-c2nc(-c3cccc4ccccc34)c(NC3CCCCC3)o2)cc1	0.3	-20%
COc1cc(OC)cc(-c2sc3ccccc3c(=O)c2I)c1	1.7	?
O=C(OCc1ccccc1)c1cccnc1	-1.7	32µM*
c1ccc(-c2[nH]ncc2-c2ccnc3ccccc23)nc1	-5.1	1%
COc1cccc([C@@H]2Oc3ccc(OC)cc3C(=O)[C@H]2OC(=O)NC2CCCC2)c1	-0.9	1%
CNc1nc(-c2ccccc2OC)nc2ccccc12	0.8	-2%
COC(=O)NC(c1cccc(F)c1)[C@]1(C(C)=O)CCCC1=O (stereo partly specified)	1.4[11.7 µM]	8%
Nc1cccc2c(=O)[nH]ccc12	9.8	-21%
CC(C)[C@@H](CC(=O)N[C@@H]1CCNC[C@H]1C(=O)N[C@H](CC(=O)N[C@@H](CCC(=O)O)CC(=O)O)Cc1c[nH]c2ccccc12)NC(=O)C[C@H](Cc1ccccc1)NC(=O)[C@@H]1CNCC[C@H]1N	-3.5	-19%
COc1ncc2nc(-c3cn(C)c4ccccc34)c(=O)n(C)c2n1	?	15%
Cn1cccc1C(=O)N1CCC2(CCN(C(=O)Nc3ccccc3)CC2)CC1	-0.5	7%
N#Cc1cccc(NC(=O)N2CC3(CCN(C(=O)c4cc(C(F)(F)F)cc(C(F)(F)F)c4)CC3)C2)c1	-0.2	8%
CC(=O)N1CCC2(CC1)CN(Cc1ccc(C#N)cc1)C2	-3.1	-4%

A run of entries of the results above, for reference:
SMILES	Menin-MLL FL inh	Sfp inh
COCCNc1nc(C)nc2c1nc(-c1ccccc1)n2CCN1CCCC1	0.0	0%
Cc1noc(C)c1-c1nccc(-n2ccnc2)n1	-1.6	0%
CCCCCCCCCCCCCCCC(=O)OC[C@@H](COP(=O)([O-])OCC[N+](C)(C)C)OC(=O)CCCCCCCCCCCCCCC	-2.5	4%
O=c1c(-c2cc(F)cc(F)c2)nc2cnc(N3CCOCC3)nc2n1C1CC1	-0.6	-8%
Cn1cnnc1Sc1c([N+](=O)[O-])ncn1C	0.2	11%
c1ccc(-c2nc(-c3cccc4ccccc34)c(NC3CCCCC3)o2)cc1	0.3	-20%
COc1cc(OC)cc(-c2sc3ccccc3c(=O)c2I)c1	1.7	?
O=C(OCc1ccccc1)c1cccnc1	-1.7	32µM*
c1ccc(-c2[nH]ncc2-c2ccnc3ccccc23)nc1	-5.1	1%
COc1cccc([C@@H]2Oc3ccc(OC)cc3C(=O)[C@H]2OC(=O)NC2CCCC2)c1	-0.9	1%

Continued:
SMILES	Menin-MLL FL inh	Sfp inh
CCCn1c(-c2ccc(F)cc2)nc2c(NCCCN3CCCCC3C)nc(C)nc21 (stereo unspecified)	-7.1	5%
CN1CCN(c2ncc3nc(-c4cccs4)c(=O)n(C[C@H]4CCCO4)c3n2)CC1	?	3%
O=C(/C=C/c1ccccc1)c1ccc(O[C@H]2OC(CO)C(O)C(O)C2O)cc1O (stereo partly specified)	-2.5	-32%
CC[N+](CC)(CC)CCOc1ccc(/C=C\c2ccccc2)cc1	?	?
COc1ccccc1-c1cncnc1NCc1ccccc1	-13	-24%
CC1(C)SC2C(NC(=O)C(NC(=O)N3CCNC3=O)c3ccccc3)C(=O)N2C1C(=O)O (stereo unspecified)	-0.6	11%
C=CCOC(=O)N[C@H](/C(C(=O)OC)=C(\C)NCc1ccccc1)c1ccc2c(c1)OCO2	0.8	-9%
CCCCC/C=C\C/C=C\C/C=C\C/C=C\CCCCCC(=O)NCCc1ccc(O)c(O)c1	5.9	-22%
COc1cccc([C@@H]2Oc3ccc(OC)cc3C[C@H]2OC(=O)NS(=O)(=O)c2ccc(F)cc2)c1	-1.5	17%
CO[C@H]1COC(=O)[C@@H](OCc2ccccc2)/C=C\[C@H](C)[C@@H](OC)COC(=O)[C@H](OCc2ccccc2)/C=C\[C@@H]1C	2.8[11.7 µM]	-3%
CCCNC(=O)OC[C@H]1O[C@@H](CCO/N=C2/C[C@@H](O)[C@@H](O)[C@@H]3[C@@H]4C(=O)N(CC)C(=O)[C@H]4CC[C@@H]23)C=C[C@@H]1Oc1ccc(OC)cc1	-4.9[11.7 µM]	7%
CC(=O)OC[C@@H]1O[C@H](C/C=N\O[C@@H](C)c2cn([C@H]3COC[C@H]3O)nn2)C=C[C@@H]1OC(C)=O	2.5[11.7 µM]	11%
Cc1c(C)c2c(c(C)c1OC(=O)CCC(=O)O)CC[C@@](C)(CCC[C@H](C)CCC[C@H](C)CCCC(C)C)O2	-5.5	18%
NCCC[C@@H](CC(=O)N[C@@H]1CCCC[C@H]1C(=O)N[C@H](CC(=O)N[C@@H](CCC(=O)O)CC(=O)O)Cc1c[nH]c2ccccc12)NC(=O)C[C@H](Cc1ccccc1)NC(=O)[C@@H]1CCCC[C@H]1N	1.0	-1%
CC(C)[C@@H](CC(=O)N[C@@H]1CCNC[C@H]1C(=O)N[C@H](CC(=O)N[C@@H](CCC(=O)O)CC(=O)O)Cc1c[nH]c2ccccc12)NC(=O)C[C@H](Cc1c[nH]c2ccccc12)NC(=O)[C@@H]1CNCC[C@H]1N	-4.0	-12%
COc1ccc(-c2ccc(N(C)C)cc2)cc1C1C2C=CCC(C)C2C(=O)N1Cc1ccccc1 (stereo unspecified)	1.9	10%
CCCCN1CC(O)C(O)C(O)C1CO (stereo unspecified)	1.8	2%
N#Cc1ccccc1-c1cncnc1NCc1cccnc1	0.0	?
O=C(O)[C@@H](O)[C@@H](O)[C@@H](O[C@H]1O[C@@H](CO)[C@@H](O)[C@@H](O)[C@@H]1O)[C@@H](O)CO	-3.6[24.8 µM]	24%
CC[C@H]1C2=C3C(CC[C@H]4C(OCc5ccc(F)cc5C(F)(F)F)OC[C@](C)([C@@H]34)N(C(=O)OC(C)(C)C)C2)C2COC(=O)OCC21 (stereo partly specified)	0.1	31%[activator]
CC#CCN1c2ccccc2[C@]23C[C@@H](C(=O)OC)N(C(=O)CC(C)C)C2=NC(C(=O)OC)=C(C(=O)OC)[C@H]13	-13[11.7 µM]	29%
CC(C)(C)OC(=O)N[C@@H](Cc1c[nH]c2ccccc12)C(=O)O	-0.7	6%
O=C(CCBr)N1CCN(C(=O)CCBr)CC1	-1.6	-29%
NCCC[C@@H](CC(=O)N[C@@H]1CCNC[C@H]1C(=O)N[C@H](CC(=O)N[C@@H](CCC(=O)O)CC(=O)O)Cc1c[nH]c2ccccc12)NC(=O)C[C@H](CO)NC(=O)[C@@H]1CCCC[C@H]1N	-0.3	13%
c1ccc(-c2cccc(N3CCC4(CCNCC4)CC3)c2)cc1	6.4	-17%
NC(Cc1ccccc1)C(O)c1ccco1 (stereo unspecified)	8.1	9%
CC(C)[C@@H](CC(=O)N[C@@H]1CCNC[C@H]1C(=O)N[C@H](CC(=O)N[C@@H](CCC(=O)O)CC(=O)O)Cc1ccccc1)NC(=O)C[C@H](CO)NC(=O)[C@@H]1CNCC[C@H]1N	2.3	?
CC12CCCC(O)(C1)C1CC(C)(C)C1CC2 (stereo unspecified)	-0.1	11%
FC(F)(F)c1ccccc1-c1cncnc1NCCN1CCOCC1	3.0	1%
O=C(O)c1c2ccccc2cc2ccccc12	?	12%&22%
COCCn1c(=O)c(-c2cccs2)nc2cncnc21	?	13%
CC(C)C[C@H]1COC(c2ccc(Br)cc2)=N1	-2.6[94.6 µM]	-4%
O=C(c1cccc(F)c1)N1CCC2(CCCN(Cc3cc(C(F)(F)F)cc(C(F)(F)F)c3)C2)CC1	12	20%
CCCCC/C(C=O)=C/c1ccccc1	2.2	-1%
COC(=O)N1CCC2(CCCN(C(c3ccccc3)c3ccccc3)C2)CC1	1.4	-6%
CN(C)c1ncc2ncc(=O)n(C[C@H]3CCCO3)c2n1	-5.6	-1%
COc1cc2c(cc1OC)-c1cc3nc4ccccc4nc3n1C(C)(C)C2	?	?
CN1CCN(c2cc(-c3ccccc3Cl)ncn2)CC1	1.9	9%
COc1ccc(CNc2ccnc(-c3ccc(N(C)C)cc3)n2)c(OC)c1	0.8	?
CCCNC(=O)OC[C@@H]1O[C@H](CCO/N=C\[C@@H](OC)[C@H](C)/C=C\CC(=O)OC)C=C[C@@H]1Oc1ccc(OC)cc1	0.5[11.7 µM]	13%

Copied from the list.
Value of `CN(C)c1ncc2ncc(=O)n(C[C@H]3CCCO3)c2n1` under Menin-MLL FL inh: -5.6
Value of `CC#CCN1c2ccccc2[C@]23C[C@@H](C(=O)OC)N(C(=O)CC(C)C)C2=NC(C(=O)OC)=C(C(=O)OC)[C@H]13` under Menin-MLL FL inh: -13[11.7 µM]

(cont.)
SMILES	Menin-MLL FL inh	Sfp inh
CCCC[C@H]1C[C@@H]1[C@@H]1N(P(=O)(c2ccccc2)c2ccccc2)[C@](CO)(c2ccccc2)CC12CC2	-1.2	?
COCC(=O)N1CCC2(CCCN(Cc3ccc(C#N)cc3)C2)CC1	3.4	16%
O=c1c(-c2ccccc2)nc2cnc(N3CCOCC3)nc2n1Cc1cccs1	?	3%
Cc1ncc(CSSCc2cnc(C)c(O)c2CO)c(CO)c1O	11	12%
CNC(=O)C1(CC(C)C)C=CCN1C(=O)c1ccccc1 (stereo unspecified)	-2.4	3%
Cc1ccccc1-c1nc(N2CCOCC2)c2ccccc2n1	0.2	5%
O=C(Nc1ccccc1)N1CCCC2(CCN(C(=O)c3cc(C(F)(F)F)cc(C(F)(F)F)c3)CC2)C1	-0.4	14%
CN(C)C(=O)c1ccc(-c2cncnc2NCc2ccccc2)cc1	4.6	14%
COC(=O)N1CCC2(CCN(Cc3ccccc3)CC2)CC1	4.7	11%
CC(C)=CCC1=C(O)[C@](O)(CC=C(C)C)C(=O)C(C(=O)CC(C)C)=C1O	4.2	-2%
O=C(N/N=C1/C[C@@H](O)[C@@H](O)[C@@H]2[C@@H]3C(=O)N(C[C@@H]4CCCO4)C(=O)[C@H]3CC[C@H]12)OCc1ccccc1	0.8[11.7 µM]	-1%
CS(=O)(=O)CCNCc1ccc(-c2ccc3ncnc(Nc4ccc(OCc5cccc(F)c5)c(Cl)c4)c3c2)o1	0.4	12%
C[C@@H](O)[C@@H]1NC(=O)[C@H](CCCCN)NC(=O)[C@H](Cc2c[nH]c3ccccc23)NC(=O)[C@H](Cc2ccccc2)NC(=O)[C@H](Cc2ccccc2)NC(=O)[C@H](CC(N)=O)NC(=O)[C@H](CCCCN)NC(=O)[C@@H](NC(=O)[C@@H]2CCCN2)CSSC[C@@H](C(=O)N[C@@H](CCCCN)C(=O)O)NC(=O)[C@H](CO)NC(=O)[C@H](CO)NC(=O)[C@H](Cc2ccccc2)NC1=O	-9.4	-10%
CSCC[C@H](NC(=O)[C@H](CC(C)C)NC(=O)CNC(=O)[C@H](Cc1ccccc1)NC(=O)[C@H](Cc1ccccc1)NC(=O)[C@H](CCC(N)=O)NC(=O)[C@H](CCC(N)=O)NC(=O)[C@@H]1CCCN1C(=O)[C@H](CCCCN)NC(=O)[C@@H]1CCCN1C(=O)[C@@H](N)CCCN=C(N)N)C(N)=O	-7.6	-15%
O=S(=O)(CCc1ccccc1)c1nnnn1-c1ccc(F)cc1Br	2.0	0%
OCc1ccccc1O[C@H]1OC(CO)C(O)C(O)C1O (stereo partly specified)	0.0	0%
COc1ccc(O[C@H]2C=C[C@@H](c3ccccc3)O[C@H]2CO/N=C(/C)CCC(=O)OC[C@@H]2O[C@H](c3ccccc3)C=C[C@@H]2Oc2ccc(OC)cc2)cc1	1.4[11.7 µM]	-7%
COc1cc2c(cc1OC)C(/C=C/c1ccc(OC)c(OC)c1OC)=NCC2	-0.4	?
CC1CC=CC2C1C(=O)N(Cc1ccccc1)C2c1ccc(/C=C/c2ccccc2)cc1F (stereo unspecified)	6.5	-8%
COC(=O)N1CCC2(CC1)CN(c1cccc(-c3ccccc3)c1)C2	0.7	79µM*
COC(=O)C1=C(C(=O)OC)[C@@H]2Nc3ccccc3[C@@]23C[C@@H](C(=O)OC)N(S(=O)(=O)c2ccc(C#N)cc2)C3=N1	-4.9[11.7 µM]	-6%
C[C@@H]1OC(OC2C(OC3CC[C@@]4(C)C5CC=C6C7CC(C)(C)CC[C@@]7(C(=O)O)CCC6(C)C5(C)CCC4[C@]3(C)CO)OCC(O)C2O)C(O)C(O)C1O (stereo partly specified)	-3.5	-3%
COC(=O)CC1=COC(O)C2C(CO)=CC[C@@H]12 (stereo partly specified)	?	0%

An excerpt. The share of hits here may be higher or lower than overall.
